Screens: PubChem, National Center for Advancing Translational Sciences (NCATS)
HPGD block: inhibitors of human 15-hydroxyprostaglandin dehydrogenase (HPGD); 150,000 compounds, 4.3% hits; AID 894; P15428; Potency, µM, inactives show top-dose activity change, negative = inhibition, hits mostly inhibitors; purified HPGD, NADH fluorescence kinetic, PGE2 substrate; active = well fitted inhibition curve with a large enough effect (not every such curve was filed as active); inconclusive = small, poorly fitted or top-dose-only effect, or another doubt; inactive = no such curve, though single readings can be large or run the other way;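 note: top concentration of the series not given in the record; plate controls included wells without enzyme; inactives centre near -10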
Target sequence (P15428 whole entry, looked up): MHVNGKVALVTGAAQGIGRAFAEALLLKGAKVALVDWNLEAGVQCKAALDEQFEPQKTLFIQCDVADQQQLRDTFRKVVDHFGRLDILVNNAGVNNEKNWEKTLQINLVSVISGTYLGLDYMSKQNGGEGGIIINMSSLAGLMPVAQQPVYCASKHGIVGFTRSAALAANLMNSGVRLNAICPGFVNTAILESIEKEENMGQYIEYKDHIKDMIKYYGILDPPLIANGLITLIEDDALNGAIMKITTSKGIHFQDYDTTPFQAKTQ
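20 nM HPGD preincubated 15 min at room temperature with compound in 50 mM Tris-HCl pH 8, 0.01% Tween 20. Started with 1 mM NAD+ and 30 uM prostaglandin E2; NADH fluorescence (360/450 nm) read 5 times over 30-s intervals, last minus first.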
Numbers without * were called inactive; ? = inconclusive. % is set by controls: 0 for no effect and ±100 for the full control effect; potency is the fitted concentration of half-maximal effect. Only part of the results is shown; the hit share may differ from the screen's.

No.	HPGD block	Structure
1	-8%	CN(C1=C(N2CCOCC2)C(=O)c2ccccc2C1=O)c1ccccc1
2	?	O=S(=O)(/N=C/c1c(O)ccc2ccccc12)c1cccs1
3	?	CC1(C)CC(=O)C2=C(C1)N(c1cccc(O)c1)C1=C(C2)C(=O)CC(C)(C)C1
4	?	CCc1cc2c(=O)c(-c3cscn3)coc2c(CN(C)C)c1O
5	-14%	CCCCOC(=O)Nc1nnc(COc2ccccc2)s1
6	-1%	COc1ccc(CC(=O)N2N=C(C)CC2(O)c2cccnc2)cc1OC (stereo unspecified)
7	?	COc1nccnc1NS(=O)(=O)c1ccc(N=Cc2c(C)[nH]n(-c3ccc(Cl)cc3)c2=O)cc1
8	-14%	Cc1ccc(C)c(NC(=S)NC(NC(=O)N(C)C)C(Cl)(Cl)Cl)c1 (stereo unspecified)
9	-6%	Cc1ccccc1CSCCNC(=O)CSCc1ccc([N+](=O)[O-])cc1
10	-9%	C(=N\c1nccs1)/c1c[nH]c2ccccc12
11	-23%	Cc1ccc(NC(=S)NC(NC(=O)c2ccco2)C(Cl)(Cl)Cl)cc1 (stereo unspecified)
12	-17%	COC(=O)C1=C(N)OC2=C(C(=O)CC(C)(C)C2)C1c1ccoc1 (stereo unspecified)
13	3%	CCN1CCCC1CNC(=O)Cn1cnc2ccc(S(=O)(=O)N3CCC(C)CC3)cc2c1=O (stereo unspecified)
14	4µM*	COc1ccc(-n2c(C)c(C(C)=O)c3cc(O)ccc32)cc1
15	-20%	c1csc(Cc2nc3ccccc3[nH]2)c1
16	-2%	NC(=O)c1ccc(NC(=O)c2ccc(CN3CCOCC3)cc2)cc1
17	-15%	Cn1c(=O)c(NCCc2ccccc2)c2c3c(cccc31)C(=O)c1ccccc1-2
18	-7%	COc1cccc(N2CC(C(=O)Nc3c(C)cccc3C)CC2=O)c1 (stereo unspecified)
19	10µM*	S=P(N1CC1)(N1CC1)N1CC1
20	-8%	Cc1ccc(-c2nnn(CC(=O)N3CCN(c4nc5ccccc5s4)CC3)n2)cc1
21	?	CCCCOC(=O)Nc1cc(C(=O)OC)ccc1C(=O)OC
22	-11%	COC(=O)[C@@]1(C)CCC[C@@]2(C)c3ccc(O)c(C(C)C)c3CCC21 (stereo partly specified)
23	-8%	O=C(C(Cl)Cl)N1CCN(c2ccccn2)CC1
24	-15%	COc1cc2nc(CN3CCN(c4ncc(C(F)(F)F)cc4Cl)CC3)[nH]c(=O)c2cc1OC
25	-9%	O=C1N(c2ccc(Cl)cc2)C(c2ccccc2)N2CCCN12 (stereo unspecified)
26	-19%	N#C/C=C1\Sc2ccccc2C(=O)N1CC(=O)N1CCN(S(=O)(=O)c2ccccc2)CC1
27	-18%	Cc1ccc(S(=O)(=O)NCc2ccccc2)cc1
28	-11%	c1ccc(-c2ccccc2-n2cnnn2)cc1
29	-1%	C/C(=N\O)c1ccc2[nH]ccc2c1
30	?	COc1ccc2cc(/C=N/NC(=O)c3ccc(CN(c4cccc(Cl)c4Cl)S(C)(=O)=O)cc3)c(Cl)nc2c1
31	-5%	Cc1noc(C)c1COC(=O)Cc1ccc(Cl)c(Cl)c1
32	-8%	C=CCNS(=O)(=O)c1ccc(OC)c(C)c1
33	7.9µM*	N#CC(C#N)=C1C=CC=CN1/C(=C\c1ccccc1Cl)C(=O)c1ccccc1
34	-6%	COc1cc(CNCCN2CCOCC2)ccc1OCc1c(Cl)cccc1Cl
35	-24%	O=C(Nc1ccc2c(c1)OCO2)c1ccc2c(c1)OCO2
36	-7%	O=C1C2C(C(=O)N1Cc1ccco1)C1C=CC2C12CC2 (stereo unspecified)
37	-11%	Cc1ccccc1C1C(C#N)=C2N=C(N)c3c(sc4c3CCCCC4)N2C2=C1C(=O)CCC2 (stereo unspecified)
38	-11%	CC1CCCN(CC(O)COc2ccc(Cl)cc2)C1 (stereo unspecified)
39	-19%	Cc1cccc(NCc2ccccc2O)c1C
40	?	O=[N+]([O-])c1ccc(N/N=C/c2cn(-c3ccccc3)nc2-c2ccccc2)cc1

Entries above printed as active in HPGD block:
No.	HPGD block	Structure
14	4µM*	COc1ccc(-n2c(C)c(C(C)=O)c3cc(O)ccc32)cc1
19	10µM*	S=P(N1CC1)(N1CC1)N1CC1
33	7.9µM*	N#CC(C#N)=C1C=CC=CN1/C(=C\c1ccccc1Cl)C(=O)c1ccccc1

Next section:
No.	HPGD block	Structure
41	-5%	O=C(CSc1nc2ccc([N+](=O)[O-])cc2[nH]1)c1ccc(Cl)cc1
42	-17%	Cc1ccc(NC(=O)c2cc3c(=O)oc4ccccc4c3s2)nc1
43	8%	Cc1ccc(Cn2c(SCc3cccnc3)nc3c2c(=O)n(C)c(=O)n3C)cc1
44	5.6µM*	CCc1ccccc1N1CSC2=C(C#N)C(c3ccccc3F)CC(=O)N2C1 (stereo unspecified)
45	-4%	Cc1ccc(S(=O)(=O)O)c(C)c1N1CCCC1=O
46	?	O=S(=O)(c1ccc(N2CCC(c3ccc(Cl)cc3)=N2)cc1)N(CCO)CCO
47	-7%	OC[C@H]1O[C@@H](n2cnc3c(NC4CCCC4)ncnc32)[C@H](O)[C@@H]1O
48	?	Cc1cc(NCCN(C)C)n2nc(-c3cccs3)cc2n1
49	?	CN(C)c1ccc(/C(=N\O)c2ccccc2)cc1
50	-1%	O=C(CNC(=O)c1ccc([N+](=O)[O-])cc1)c1ccccc1
51	-15%	Cc1ccc(-c2nn3c(C)nnc3s2)cc1NC(=O)c1cccnc1
52	-5%	C=CCNc1nc(N)c(C(=O)Nc2cc(C)on2)s1
53	-7%	O=C(/C=C/c1ccc(S(=O)(=O)N2CCOCC2)cc1)NC(=S)Nc1ccc(N2CCOCC2)cc1
54	-22%	COc1ccccc1-c1cc(C(=O)Nc2cc(C)n(Cc3ccc(Cl)cc3)n2)no1
55	-24%	CC(C)[C@H](NC(=O)c1ccccc1)C(=O)OCC(=O)c1ccc2c(c1)NC(=O)CO2
56	-11%	CN1CCN(NC(=O)c2cc([N+](=O)[O-])cc([N+](=O)[O-])c2)CC1
57	5%	CNC(=O)/C(=N\O)c1ccccc1
58	-21%	CC1=CC(C)(C)Nc2ccc(OC(=O)CN3C(=O)c4cccc5cccc(c45)C3=O)cc21
59	-8%	Cc1cc(C(N)=O)c2cc(Br)ccc2n1
60	-7%	Cc1cc(C)nc(NS(=O)(=O)c2ccc(NS(=O)(=O)c3ccccc3)cc2)n1
61	-18%	O=C(/C=C/c1cccs1)Nc1cccc(NC(=O)/C=C/c2cccs2)n1
62	-17%	Cc1cc(C(=O)CN2C(=O)NC(C)(CC(C)C)C2=O)c(C)n1-c1ccc2c(c1)OCO2 (stereo unspecified)
63	6%	O=C(NCc1ccco1)C1CCN(S(=O)(=O)N2CCC3(CC2)OCCO3)CC1
64	?	Cc1sc2nc(-c3ccccc3)[nH]c(=O)c2c1-c1ccccc1
65	-6%	CC1(C)SC2C(NC(=O)COc3ccccc3)C(=O)N2C1C(=O)O (stereo unspecified)
66	-9%	NC(=NCCc1ccccc1)NS(=O)(=O)c1ccc2ccccc2c1
67	-2%	O=C(N/N=C/c1ccncc1)c1ccccc1
68	-12%	COCC(C)n1c(SCC(=O)N2CCc3ccccc3C2)nc2ccccc2c1=O (stereo unspecified)
69	-1%	CCOC(=O)CCc1nc2ccccc2[nH]1
70	-3%	CCOC(=O)N1CCC(NCCNC(=O)c2ccc(Cl)cc2)CC1
71	-17%	COc1ccc(C(=O)NC(=S)Nc2ccccc2N2CCOCC2)cc1Br
72	-12%	CC(C)C1O[C@H](/C=C\c2ccccc2)OCC1(C)C (stereo partly specified)
73	-3%	COC(=O)C1C2C=CC3(CN(Cc4ccco4)C(=O)C13)O2 (stereo unspecified)
74	-9%	O=S(=O)(c1cc(Cl)ccc1Cl)N1CC2CCCN2c2ccc(C(F)(F)F)cc21 (stereo unspecified)
75	-15%	Cc1onc(-c2ccccc2)c1C(=O)NCc1ccc2c(c1)OCO2
76	?	COc1ccc(/C=C/C(=O)NCc2cn(C)nc2C)cc1COc1ccc(Cl)cc1Br
77	-8%	CCCS(=O)(=O)N1CCCC(C(=O)NCCCN(Cc2ccccc2)C(C)C)C1 (stereo unspecified)
78	?	CCN(Cc1ccccc1)C(=O)c1cc2c(=O)oc3ccc(C)cc3c2s1
79	-12%	Cn1c[n+](C)cc1-c1ccc(/C(N)=N/O)cc1
80	-1%	CC(=O)Nc1ccc(S(=O)(=O)N2CCN(c3cc(C)nc4ccccc34)CC2)cc1
81	-18%	Cc1cccc2c(=O)cc(C)n(Cc3ccccc3)c12
82	-8%	O=C(COC(=O)CSc1ccc2ccccc2c1)Nc1ccccc1OC(F)F
83	-10%	COc1ccc(C(=O)NCCNC(C)=O)cc1S(=O)(=O)NCc1ccc(Cl)cc1
84	2%	CNC(=O)N(O)C1N(C)C(=O)N(CC(=O)OC)C1(C)C (stereo unspecified)
85	-6%	CCC(=O)Nc1ccc(NC(=O)c2cccc(OC)c2)nc1
86	-1%	CSCCC(NC(=O)c1cccc(S(=O)(=O)N2CCOCC2)c1)C(=O)Nc1ccc(F)cc1 (stereo unspecified)
87	-11%	Cc1ccc(NC(=O)CCC(=O)c2cccs2)cc1
88	-2%	CCOC(=O)c1nn(-c2ccc(Cl)cc2)c2nc(Nc3ccccc3)cc(=O)n12
89	-6%	COc1cc(-c2nc(Cc3c(F)cccc3Cl)no2)cc(OC)c1OC
90	-21%	O=C(NCC1CCCCC1)C1CCCN(C(=O)NC2CCCCC2)C1 (stereo unspecified)
91	-5%	CC(C)CC(=O)Nc1nnc(SCC(=O)NCc2ccco2)s1
92	-6%	CCOC(=O)c1cc(NC(=O)N2CCCCC2)c(C)nc1C
93	-23%	Cc1cccc(S(=O)(=O)Nc2cccc(-c3cn4ccsc4n3)c2)c1
94	-13%	CC/C(=N\NC(=O)CNC(=O)/C=C/c1ccco1)c1ccccc1
95	-2%	CCOC(=O)C(CCc1nnc(N)s1)C(=O)OCC
96	-14%	CC(=O)N1CCc2cc(Br)cc(S(=O)(=O)N3CCN(C(=O)c4ccco4)CC3)c21
97	4%	Cc1nnc(SCc2nc3ccccc3[nH]2)s1
98	-12%	COc1ccc(CCNC(=O)Cn2cccc2C(=O)c2ccccc2)cc1OC
99	-7%	C=C(C)Cn1c(N2CCN(CC)CC2)nc2c1c(=O)[nH]c(=O)n2C
100	-9%	COC(=O)[C@H](Cc1ccccc1)NC(=O)O[C@@H]1C(=O)c2ccc(OC)cc2O[C@H]1c1ccc2c(c1)OCO2

Numbers 96 through 100 from above:
No.	HPGD block	Structure
96	-14%	CC(=O)N1CCc2cc(Br)cc(S(=O)(=O)N3CCN(C(=O)c4ccco4)CC3)c21
97	4%	Cc1nnc(SCc2nc3ccccc3[nH]2)s1
98	-12%	COc1ccc(CCNC(=O)Cn2cccc2C(=O)c2ccccc2)cc1OC
99	-7%	C=C(C)Cn1c(N2CCN(CC)CC2)nc2c1c(=O)[nH]c(=O)n2C
100	-9%	COC(=O)[C@H](Cc1ccccc1)NC(=O)O[C@@H]1C(=O)c2ccc(OC)cc2O[C@H]1c1ccc2c(c1)OCO2

2 of the compounds above, tab-delimited.
item	SMILES	HPGD block
82	O=C(COC(=O)CSc1ccc2ccccc2c1)Nc1ccccc1OC(F)F	-8%
83	COc1ccc(C(=O)NCCNC(C)=O)cc1S(=O)(=O)NCc1ccc(Cl)cc1	-10%

Going on with the list.
No.	HPGD block	Structure
101	-13%	O=c1c2ccccc2[nH]c(=S)n1CCCN1CCOCC1
102	-4%	CCCC(=O)Nc1ccc(NC(=O)c2cccs2)cn1
103	-28%	COc1ccc(-c2cc3ccccc3n2CC(O)Cn2nc(C)cc2C)cc1 (stereo unspecified)
104	?	COc1cccc(C2C(C#N)=C(C)NC3=C2C(=O)CC(C)(C)C3)c1 (stereo unspecified)
105	-3%	N#CCC(=O)Nc1ncn(Cc2ccccc2Cl)n1
106	-4%	C=C1C2=CC(=O)OC(c3ccoc3)[C@]2(C)CCC1[C@]1(C)C=CC(=O)C(C)(C)C1CC(=O)OC (stereo partly specified)
107	-12%	CCN1CCN(Cc2ccccc2NC(=O)Nc2ccc(C)cc2)CC1
108	-11%	COc1ccc(N(CC(=O)Nc2ccccc2C(=O)NCc2ccco2)S(C)(=O)=O)cc1
109	-9%	CCCCC(CC)C1OCC(C[N+]2(C)CCOCC2)O1 (stereo unspecified)
110	-2%	COc1cccc(NC(=O)c2ccccc2SC)c1
111	-13%	O=C(CSc1nnc(SCc2cccc3ccccc23)s1)N/N=C/C=C/c1ccccc1[N+](=O)[O-]
112	-11%	CCS(=O)(=O)N1CCC(C(=O)NCC2CCCO2)CC1 (stereo unspecified)
113	-6%	O=C(NC1CCCCC1)NC1CC2CCC(C1)N2C(=O)NCc1ccccc1 (stereo unspecified)
114	-1%	COc1ccc(CCNS(=O)(=O)c2ccc3c(c2)CCN3C(=O)CCC(=O)O)cc1OC
115	-14%	OC(COCc1ccccc1)CN1CCN(c2ccccc2F)CC1 (stereo unspecified)
116	?	Nc1c(-c2ccccc2)n[nH]c1-c1ccccc1
117	?	COc1ccc(OC)c(-c2cc(C(F)(F)F)c3c(n2)sc2c(O)cc(=O)[nH]c23)c1
118	7%	COc1ccc(CN(C)CCc2ccccn2)cc1OC
119	-12%	CN(C)c1ccc(NC(=O)c2cccc(N3C(=O)CCC3=O)c2)cc1
120	-8%	Cc1ccc(NC(=O)C(CC(C)C)NC(N)=O)cc1 (stereo unspecified)

3 entries already listed, arranged by their value in HPGD block, descending.
| cpd | mol | HPGD block |
| --- | --- | --- |
| 102 | CCCC(=O)Nc1ccc(NC(=O)c2cccs2)cn1 | -4% |
| 109 | CCCCC(CC)C1OCC(C[N+]2(C)CCOCC2)O1 (stereo unspecified) | -9% |
| 107 | CCN1CCN(Cc2ccccc2NC(=O)Nc2ccc(C)cc2)CC1 | -12% |
